ClpP mod = qHTS Assay for Activators of ClpP | actives 1.9% (n = 340,000) | AID 651965, 2013 | Potency, µM (doses to about 57.5 µM), without a hit: at the highest dose activity change, negative = active | purified B. subtilis ClpP, FRET peptide cleavage, 20 min; active = well fitted falling curve with a large enough effect; inconclusive = small, poorly fitted or top-dose-only effect; inactive = no such curve, though single readings can be large or run the other way; further: potency means the concentration at half of the fitted maximal effect; the source files actives as falling curves though it sought activators and does not explain the sign; nearly all actives have a fitted effect of over 65% in size; many hits overshoot -100%
Target sequence (P80244 whole entry, looked up): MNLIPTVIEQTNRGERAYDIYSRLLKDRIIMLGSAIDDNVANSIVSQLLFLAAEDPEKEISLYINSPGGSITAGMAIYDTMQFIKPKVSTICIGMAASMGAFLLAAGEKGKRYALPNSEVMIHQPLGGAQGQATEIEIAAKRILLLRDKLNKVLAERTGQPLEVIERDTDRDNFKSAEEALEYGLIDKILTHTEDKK
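Buffer: 100 mM Tris/HCl pH8, 100 mM KCl, 0.05% low protease BSA, 2.5% glycerol, 0.01% Tween-20. ClpP 10 microg/mL final; 20 min RT; delta FRET normalized to ADEP and DMSO controls.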
CtBP-E1A blk = inhibitors of CtBP/E1A interaction. AID 651724. AlphaScreen GST-E1A/His-CtBP binding, 1536-well; hits give low values; control for the full effect not named in the record. activity change, % (concentration not given with the values). actives 0.49% (n = 340,000); in the data active means activity change below about -65%; inconclusive means about -30% to -65%; inactive means above about -30%; further: on the % scale 0 is the no-effect control and ±100 the full control effect
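Protein mix (5X: 125 nM each GST-E1A, His-CtBP) was incubated with pinned compound 2 h at 37 deg C in dark, in 50 mM Tris pH 8.0 buffer with 300 mM NaCl. Glutathione donor and nickel acceptor beads followed; AlphaScreen signal read after 1 h.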
The depositor's hits bear a star; ? = inconclusive. Not all compounds are listed; rates above refer to the full screens.

SMILES | ClpP mod | CtBP-E1A blk
COC(=O)[C@]12CCCCC=C1N(Cc1ccco1)C(=O)[C@H](CC(=O)NCC13CC4CC(CC(C4)C1)C3)C2 | -3.3% | -22
COc1ccc2[nH]c3c(c(=O)c2c1)CCCC3 | 4.8% | 0
CC(=O)c1ccc(OC2(C)CCN(Cc3ccc4ccccc4c3)C2)cc1 (stereo unspecified) | ? | -17
O=C(NCc1ccccc1)C(c1ccc(F)cc1)N1CCN(CCN2CCOCC2)CC1 (stereo unspecified) | 0.1% | -1
CCNC(=O)C1CCCN(C(=O)c2ccc(OC)c(OC)c2)CC1 (stereo unspecified) | -2.0% | -3
O=C1NC[C@H](CCCCN2CCN(CCc3ccccc3)C(=O)C2=O)N(CCc2ccccc2)C1=O | 2.2% | 7
C[C@@H]1CCCN1[C@@H]1CS(=O)(=O)N[C@H]1COCc1ccccc1 | 2.6% | 1
COc1cc(Cn2c3ccc(NC(=O)CCc4ccc(O)cc4)cc3c(=O)n2C)ccc1F | 5.2% | -26
COc1ccccc1-c1cccc2nccn12 | 4.9% | 4
O=C(NC1CCCCC1)C1c2ccccc2OCC(=O)N1CCc1ccccc1 (stereo unspecified) | -0.1% | 5
Cc1ccc2nc(C(C)(C)C)c(Cc3cccc(F)c3)n2c1 | 5.4% | -8
Cc1cccc(C)c1NC(=O)C(c1ccccc1)N1CCN(C/C=C/c2ccccc2)CC1 (stereo unspecified) | -2.3% | 2
CC(C)C[C@@H]1Cc2[nH][nH]c(=O)c2[C@H](c2ccc(Cl)cc2)O1 | 1.6% | -3
CC[C@H](C)[C@@H]1OC(=O)[C@@H](C)[C@@H](CC)NC(=O)[C@H](C)N(C)C(=O)C(C)(C)C(=O)C(C)NC(=O)[C@H](Cc2ccccc2)N(C)C(=O)[C@H](C(C)C)N(C)C(=O)CNC(=O)[C@H](CC(C)C)N(C)C(=O)CNC1=O (stereo partly specified) | 1.4% | 21
CNc1cccc(-c2ccc(C(C)=O)s2)n1 | -11% | 18
CC(=O)Nc1cc(-c2cccc(C(=O)NCCN(C)C)c2)cn2c(-c3ccc(S(C)(=O)=O)cc3)cnc12 | 4.8% | 2
CCCCn1nnnc1C(c1cc2ccccc2o1)N(CCC#N)Cc1ccccc1 (stereo unspecified) | -6.2% | -21
CC(C)CN1CCC1(C)C(=O)Nc1cccc(C#N)c1 (stereo unspecified) | -1.3% | 7
Cc1onc(-c2ccccc2)c1C(=O)N1CCC(C)(C(=O)NS(=O)(=O)C2CC2)C1 (stereo unspecified) | 2.8% | 5
CC(O)(c1ccccc1)c1nc(-c2ccc3c(c2)OCO3)cs1 (stereo unspecified) | -3.7% | -17
COc1ccc(Cc2c(-c3ccc(OC)c(OC)c3)nc3cc(C)c(Br)c(C)n23)c(C)c1 | -3.3% | -21
CCOC(=O)C1CCCN(C(=O)C2(c3ccc(Cl)cc3)CCCC2)CC1 (stereo unspecified) | -1.8% | 11
COc1cccc(-c2cc(CNC(=O)[C@H]3O[C@@H](n4ccc(N)nc4=O)[C@H](O)[C@@H]3O)no2)c1 | -5.9% | 4
CC(O)(c1ccccc1)c1nc(-c2cccc(F)c2)cs1 (stereo unspecified) | 1.5% | 1
C=CCNc1nc(NCCCN2CCCC2=O)c2sc(-c3ccccc3)cc2n1 | 2.9% | ?

Record cards, from the list above. Values in the order: ClpP mod | CtBP-E1A blk
CNc1cccc(-c2ccc(C(C)=O)s2)n1 is listed as -11% | 18
CC(=O)c1ccc(OC2(C)CCN(Cc3ccc4ccccc4c3)C2)cc1 (stereo unspecified) is listed as ? | -17
CC(O)(c1ccccc1)c1nc(-c2cccc(F)c2)cs1 (stereo unspecified) is listed as 1.5% | 1
O=C1NC[C@H](CCCCN2CCN(CCc3ccccc3)C(=O)C2=O)N(CCc2ccccc2)C1=O is listed as 2.2% | 7

Next part.
SMILES | ClpP mod | CtBP-E1A blk
CC1=C(C(=O)N2CCCCCC2)CC(CC(=O)NCc2cccs2)C(=O)N1CCC1=CCCCC1 (stereo unspecified) | 0.2% | 2
Cc1c(C(=O)NCc2ccccn2)sc(=O)n1Cc1ccc(-c2ccccc2)cc1 | -7.9% | ?
CC(=O)c1cccc(-c2ccnc3c2CC(C(=O)Nc2cccc(Oc4ccccc4)c2)O3)c1 (stereo unspecified) | -5.4% | -7
O=S1(=O)CC(N2CC=CC2)CN1Cc1cn(Cc2ccc(Cl)cc2)nn1 (stereo unspecified) | 0.8% | 0
CCc1nc2ccc(C(=O)Nc3ccc(OC)c(OC)c3)cn2c1N(C)Cc1ccc(N(C)C)cc1 | 0.8% | ?
Nc1nc2c(ncn2[C@@H]2O[C@H](CNCC3=Cc4cc(O)ccc4OC3)[C@@H](O)[C@H]2O)c(=O)[nH]1 | -2.9% | -1
CC(C)c1ccc(NC(=O)C2Cc3c(-c4cccc(F)c4)ccnc3O2)cc1 (stereo unspecified) | -4.2% | -5
CC1(C(=O)NS(=O)(=O)c2ccccc2OC(F)(F)F)CCN1C(=O)c1ccco1 (stereo unspecified) | 1.2% | 12
NC(Cc1ccc(Cl)cc1)c1csc(Nc2ccc(-c3ccccc3)nn2)n1 (stereo unspecified) | -1.4% | -5
O=C(NCC(F)(F)F)c1ccc2sc([C@H]3C[C@H](O)[C@@H](CO)O3)nc2c1 | -0.2% | 1
CN(C)CCNC(=O)c1cccc(-c2cnc3c(NC=O)cc(-c4cc(F)c(F)c(F)c4)cn23)c1 | -14% | 3
CCOC(=O)[C@]12CCCC=C1N(CCC1=CCCCC1)C(=O)[C@H](CC(=O)NCc1ccc(OC)c(OC)c1)C2 | 0.1% | -14
CN(c1ccc(Cl)cc1)c1cc2c(c3c1ccn3C)C1CCC2O1 (stereo unspecified) | -4.0% | -24
CCNC(=O)C[C@@H]1C=C[C@@H](NS(=O)(=O)c2ccc(F)cc2)[C@@H](CO)O1 | -2.0% | -15
CN(C)CCN(C)C1CN(Cc2ccc(F)cc2)S(=O)(=O)C1 (stereo unspecified) | 1.3% | 1
CC1(C(=O)NS(=O)(=O)c2ccc(C#N)cc2)CCN1C(=O)Cc1cccc2ccccc12 (stereo unspecified) | 1.0% | 4
Cc1nc2c(OCc3ccc(Cl)cc3)cccn2c1N(C)C(=O)CCC1CCCC1 | -1.3% | 0
CC(C)N(C)c1ncnc2c1ncn2[C@H]1CN(Cc2ccccc2)C[C@@H](CO)O1 | 0.4% | 1
COc1cccc(CNC(=S)Nc2ccc3c(c2)c(=O)n(C)n3C)c1 | 4.4% | 0
Cc1ccc(-c2ccc(CN3C(C(C)C)C(=O)N(Cc4cn(CCC5OCCO5)nn4)CCS3(=O)=O)cc2)c(C)c1 (stereo unspecified) | -0.8% | -10
CCOC(=O)C1=CCN(S(=O)(=O)c2ccccc2Cl)C1c1ccccc1 (stereo unspecified) | -1.8% | 3
N#Cc1cccc(NC(=O)c2cc(C3CCCCN3C(=O)c3ccccc3)on2)c1 (stereo unspecified) | 1.9% | -4
COc1ccc(C(C(=O)NCc2ccccc2)n2c(-c3ccccn3)nc3ccccc32)cc1 (stereo unspecified) | -30% | -4
COc1cccc(C(O)c2ncc(-c3ccccc3)[nH]2)c1 (stereo unspecified) | -0.3% | 1
CCCCNC(=O)C1C(c2ccccc2)=Nc2ccccc2N1C(=O)c1ccc(C)cc1 (stereo unspecified) | -2.5% | 2

Part of the list above, with values under each structure:
Order of values – ClpP mod | CtBP-E1A blk
CCNC(=O)C[C@@H]1C=C[C@@H](NS(=O)(=O)c2ccc(F)cc2)[C@@H](CO)O1
    -2.0% | -15
CN(C)CCN(C)C1CN(Cc2ccc(F)cc2)S(=O)(=O)C1 (stereo unspecified)
    1.3% | 1
CC1(C(=O)NS(=O)(=O)c2ccc(C#N)cc2)CCN1C(=O)Cc1cccc2ccccc12 (stereo unspecified)
    1.0% | 4

(continued)
SMILES | ClpP mod | CtBP-E1A blk
COc1ncccc1-c1cc2nc(NCCNC(C)=O)n(C)c(=O)c2s1 | 4.1% | ?
O=C1CCN(Cl)C(=O)N1Cl | -0.4% | -3
CC(C)n1c(=O)c2ccccc2n1Cc1cn(Cc2ccccc2)nn1 | 4.5% | 4
CCc1nc2c(OCc3ccc(C#N)cc3)cccn2c1N(C)C(=O)c1cccs1 | -0.4% | 25
CCOC(=O)[C@@H](NC(=O)/C=C/[C@H]1O[C@@H](n2cc(C)c(=O)[nH]c2=O)C[C@@H]1O)C(C)C | 1.0% | 28
CCCC(=O)N1CCC1(C)C(=O)Nc1ccc(-n2cccc2)cc1 (stereo unspecified) | 0.1% | -13
CN(C)CC(=O)N[C@@H]1CC[C@@H](CCNS(=O)(=O)c2ccccc2)O[C@@H]1CO | -12% | 0
CCCOc1ccc(F)cc1-c1cc(C(=O)Nc2cc(OC)ccc2OC)[nH]n1 | 4.1% | 2
COc1cccc(-c2cc3nc(Nc4ccc(OC)c(OC)c4)n(C)c(=O)c3s2)c1 | -14% | -23
COC(=O)[C@@]12C[C@@H](CC(=O)NCCc3ccccc3OC)C(=O)N(Cc3ccccc3)C1=CCC(C)(C)C2 | 3.3% | -1
O=C(NC1CCCC1)C(c1ccco1)N1CCN(c2c(Cl)cncc2Cl)CC1 (stereo unspecified) | 1.0% | 3
O=C1NC[C@H](CCCCN2C[C@H](Cc3ccccc3)N(CC3CCCCC3)C(=O)C2=O)N(CCc2ccc(O)cc2)C1=O | 1.1% | 1
COc1ccccc1Cc1c(-c2ccc(C)cc2)nc2cc(C)c(Br)c(C)n12 | -9.6% | -3
CC(=O)c1cccc(-c2cnc3c(NC=O)cc(-c4ccccc4F)cn23)c1 | ? | -3
CC1(c2nnnn2Cc2ccccc2)CCC(=O)N1c1ccc(N2CCOCC2)cc1 (stereo unspecified) | -3.6% | -2
Cc1ccc2nc(-c3ccc(Cl)cc3)c(Cc3ccccc3C(F)(F)F)n2c1 | 3.9% | -2
CS(=O)(=O)Nc1ccc(-c2ccc3nccn3c2)cc1 | 1.0% | -9
CC(C)[C@@H]1Cc2[nH][nH]c(=O)c2[C@H](c2ccc(F)cc2)O1 | 1.3% | 3
CCOC1=C2CN(S(=O)(=O)c3ccccc3)[C@H](c3ccccc3)C[C@H]2n2c(=O)n(-c3ccccc3)c(=O)n2C1 | -1.3% | -2
COC(=O)[C@@]12C[C@@H](CC(=O)NCCCCc3ccccc3)C(=O)N(Cc3ccccc3)C1=CCC(C)(C)C2 | -1.9% | -1
O=C(Nc1nnc([C@@H]2C[C@H](O)[C@@H](CO)O2)s1)Nc1ccc(F)cc1F | 1.0% | 0
CC1(C(=O)NS(=O)(=O)C2CC2)CCN(C(=O)c2cc3ccccc3s2)C1 (stereo unspecified) | -1.2% | 7
Cn1c(NCc2ccccc2F)nc2cc(-c3cccc(Cl)c3)sc2c1=O | ? | 5
Oc1ccc(C[C@H]2CNC(=S)N2C[C@H]2CCCN2C[C@H](Cc2ccccc2)N2C[C@H](Cc3ccccc3)N(CC3CCCCC3)C2=S)cc1 | 0.3% | -3
CC(=O)Nc1cc(-c2ccc(N3CCN(C)CC3)cc2)cn2c(-c3cccc(C(=O)N(C)C)c3)cnc12 | -20% | -5

Three structures from above, arranged by number of heavy atoms, lowest first:
SMILES | ClpP mod | CtBP-E1A blk
O=C(NC1CCCC1)C(c1ccco1)N1CCN(c2c(Cl)cncc2Cl)CC1 (stereo unspecified) | 1.0% | 3
C=CCNc1nc(NCCCN2CCCC2=O)c2sc(-c3ccccc3)cc2n1 | 2.9% | ?
CCCCn1nnnc1C(c1cc2ccccc2o1)N(CCC#N)Cc1ccccc1 (stereo unspecified) | -6.2% | -21

More structures
SMILES | ClpP mod | CtBP-E1A blk
O=C1COc2ccccc2C(c2nc3ccccc3[nH]2)N1C1CC1 (stereo unspecified) | -0.5% | 9
Cc1cccc2sc(=S)[nH]c12 | -0.8% | 6
O=C(NCc1cccc(C(F)(F)F)c1)c1ccc2sc(C3=C[C@@H](O)[C@@H](O)[C@@H](CO)O3)nc2c1 | -2.8% | -6
CC(=O)Nc1cncc(-c2cccc(C(=O)N3CCOCC3)c2)n1 | 5.0% | 28
CCCS(=O)(=O)NC(=O)C1(C)CCCN(C(=O)c2cccc(C)c2C)C1 (stereo unspecified) | -1.0% | 2
CC(C)(C)c1cc2nc(NCCc3ccc(S(N)(=O)=O)cc3)ccn2n1 | ? | -22
COCCNC(=O)C1CCCN(C(=O)c2ccc(C(F)(F)F)nc2C)CC1 (stereo unspecified) | -0.1% | 6
CCCS(=O)(=O)NC(=O)C1(C)CCCN(C(=O)c2cc3ccccc3s2)C1 (stereo unspecified) | -0.4% | 6
COc1cccc(C(NC(C)=O)c2nc(-c3cccc(C(=O)O)c3)cs2)c1 (stereo unspecified) | -1.4% | -29
CCCc1nc2ccc(Cl)cn2c1Cc1ccsc1 | -18% | -1
CC(C)S(=O)(=O)NC(=O)C1(C)CCN1C(=O)Cc1ccccc1 (stereo unspecified) | -1.1% | 1
Nc1[nH]c(C(=O)c2ccccc2)c(-c2ccc(Br)cc2)c1C(=O)NC1CCCCC1 | 1.0% | 2
FC(F)(F)c1ccccc1Cc1c(-c2ccccc2)nc2c3ccccc3ccn12 | 22µM* | 6
COc1cccc(CNc2nc3cc(-c4ccccc4C)sc3c(=O)n2C)c1 | ? | 0
CCCCN(C=O)c1c(CC)nc2c(OCc3ccccc3C)cccn12 | -5.4% | 1
COC(=O)N1CCCCC1c1cc(C(=O)N2CCOCC2)no1 (stereo unspecified) | -1.5% | 10
COc1ccc(C(O)c2ncc(-c3ccc4ccccc4c3)[nH]2)cc1F (stereo unspecified) | 4.4% | -21
COc1ncccc1-c1cc2nc(NCCCN(C)C)n(C)c(=O)c2s1 | 4.8% | -7

Source: PubChem BioAssay (National Center for Advancing Translational Sciences (NCATS))
